KCNQ2 enhance: potentiators of rat KCNQ2 potassium channel | O88943 | CHO-K1 KCNQ2, FluxOR thallium flux fluorescence; hits give high values | B-score at 10 µM | hit rate 0.54% among 310,000;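 active means fluorescence ratio B-score at least 3 SD of library B-scores, with initial fluorescence B-score within 3 SD, cut at about 5.3 in these data; same plate scores as AID 2156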;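 further: B-score of peak minus minimum over baseline fluorescence ratio after K+ and Tl+ stimulus; positive B-score means potentiation of KCNQ2 with more thallium influx and brighter signal; only the inactives scoring about 0 or higher are listed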
Target sequence (O88943 whole entry, looked up): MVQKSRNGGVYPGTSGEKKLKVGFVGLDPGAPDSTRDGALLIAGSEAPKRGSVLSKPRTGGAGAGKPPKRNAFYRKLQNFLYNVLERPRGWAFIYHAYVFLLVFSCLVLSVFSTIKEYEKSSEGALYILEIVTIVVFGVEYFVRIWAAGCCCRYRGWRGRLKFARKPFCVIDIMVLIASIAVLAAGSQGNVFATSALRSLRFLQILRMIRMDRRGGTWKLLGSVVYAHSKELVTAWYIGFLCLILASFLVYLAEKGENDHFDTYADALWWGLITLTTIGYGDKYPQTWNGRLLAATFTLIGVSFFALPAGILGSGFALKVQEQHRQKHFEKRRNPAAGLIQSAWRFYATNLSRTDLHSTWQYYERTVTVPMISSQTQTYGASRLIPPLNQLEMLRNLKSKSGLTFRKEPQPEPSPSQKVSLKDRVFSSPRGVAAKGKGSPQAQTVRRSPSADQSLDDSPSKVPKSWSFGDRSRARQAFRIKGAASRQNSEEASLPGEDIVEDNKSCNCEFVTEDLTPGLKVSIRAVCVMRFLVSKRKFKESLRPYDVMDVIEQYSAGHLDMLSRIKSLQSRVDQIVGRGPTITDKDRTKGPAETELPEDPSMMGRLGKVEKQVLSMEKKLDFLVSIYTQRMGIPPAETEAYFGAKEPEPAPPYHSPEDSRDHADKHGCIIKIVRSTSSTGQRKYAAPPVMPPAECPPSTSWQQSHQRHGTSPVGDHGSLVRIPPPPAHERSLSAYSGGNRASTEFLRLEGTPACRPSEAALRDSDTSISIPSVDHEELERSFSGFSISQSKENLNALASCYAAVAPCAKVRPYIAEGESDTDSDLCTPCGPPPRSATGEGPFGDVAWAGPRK
KCNQ2 enhance baseline: also measured in KCNQ2 enhance; calls as there; B-score; compound at 10 µM; measured here: initial fluorescence intensity artifact check;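 brightness before thallium and not channel activity; 0 = typical well and far values either way flag optical interference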
* marks the source's active call; other numbers are inactive results. An excerpt; count on the stated rates, not on these rows.

SMILES	KCNQ2 enhance	KCNQ2 enhance baseline
Cn1c(Cc2ccccc2)[n+](C)c2ccccc21	0.43	0.47
Cc1ccc(C)c2[nH]c(=O)c(CCNC(=O)c3cc4ccccc4o3)cc12	0.03	-0.06
CC(/C=N/NC(=O)Cn1nccc1C)=C\c1ccc(C(C)C)cc1	1.05	-2.05
CCOC(=O)C(c1ccccc1)C(Nc1ccccc1)c1ccccn1 (configuration not stated)	3.74	-2.38
Cc1ccccc1CNS(=O)(=O)c1c(C)[nH]c(C)c1C(=O)N1CCCCC1	0.17	-0.47
CC(=O)/C(C(=N)N1CCN(Cc2ccccc2)CC1)=C(\C)O	0.57	-0.23
O=C(CSc1nncn1-c1ccccc1)Nc1ccccc1	0.05	0.61
O=C(O)c1nn(-c2cccc(C(F)(F)F)c2)ccc1=O	1.01	0.43
CC1CCN(C(=O)Cn2cc3c(n2)CCCC3)CC1	0.09	1.8
Cc1ccccc1C(=O)Nc1ccc2c(c1)CCCN2C(=O)c1cccs1	0.34	-0.82
COC(=O)c1ccc(NC(=S)Nc2ccccn2)cc1	2.8	-0.2
C=CCNC(=O)NC(=O)COC(=O)COc1ccc(Br)cc1F	0.01	0.47
Cc1nnc(SCCN2CCOCC2)n1C	0.42	0.49
CCC(=O)Nc1ccc(Nc2nc(C)c([N+](=O)[O-])c(Nc3ccc(NC(=O)CC)cc3)n2)cc1	0.03	-0.06
O=C(O)c1ccc2c(c1Nc1ccccc1)C(=O)c1ccccc1C2=O	1.82	-1.12
CN1C(=O)c2ccc(NC(=S)NC(=O)C(C)(C)C)cc2C1=O	0.42	-1.08
OCCC1CN(Cc2ccon2)CCN1Cc1ccc(F)c(F)c1 (configuration not stated)	0.29	1.03
CN(C)c1ccc(/C=C2\N=C(C(C)(C)C)OC2=O)cc1	0.35	0.9
Cc1c(CCO)c(=O)n(-c2ccccc2)n1S(=O)(=O)c1ccc(F)cc1	0.27	0.96
CC1CN(C(=O)CCC(=O)N2CCCCC2)c2ccccc2O1 (configuration not stated)	0.3	-2.13
CC(NS(=O)(=O)c1ccccc1)c1n[nH]c(=S)n1-c1ccccc1 (configuration not stated)	0.22	0.59
S=C(NCCc1ccccc1)N1CCCCC1	0.44	0
O=C(COc1ccccc1[N+](=O)[O-])Nc1cccnc1	1.58	-1.27
O=C(NNS(=O)(=O)c1ccc(Cl)cc1)c1cccs1	0.27	-0.03
COc1ccc(NC(=O)Cn2c(-c3ccccc3)cc(C(C)=O)c2C)c(OC)c1	0.57	-0.79

The results go on.
SMILES	KCNQ2 enhance	KCNQ2 enhance baseline
O=C(NCc1nnc(SCC(=O)N2CCOCC2)o1)c1ccccc1F	0.26	0
Cc1ccc(Cl)cc1N1CCN(C(=O)CCS(=O)(=O)c2cccc3nonc23)CC1	0.29	-0.84
O=C(NCCN1CCOCC1)c1cc2ccccc2[nH]1	0.38	-1.95
Cc1cc(C)cc(N2CCCn3c2nc2c3c(=O)n(CCN3CCOCC3)c(=O)n2C)c1	0.21	-1.39
CCCCn1c(=O)[nH]c(=O)c2c1nc(-c1cc(Cl)c(OC)c(OC)c1)n2C	1.39	-0.73
CCOc1ccc(Br)cc1CSC(=N)N	1.67	-0.16
CNC(=S)N1CCN(C(=O)c2ccco2)CC1	0.44	-0.77
COc1ccc(CNC(=O)CN(C(=O)c2csnn2)c2cnc3ccccc3c2)cc1	0.96	0.33
CN=C1c2c(-c3ccccc3)c3cc(OC)ccc3n2CCN1C	1.18	-0.93
COc1cccc(NC(=O)CSc2nc(=O)n(CCN(C)C)c3c2CCCC3)c1	0.51	-0.93
O=[N+]([O-])c1ccccc1OCc1nc(-c2cccs2)no1	1.08	-1.83
COc1ccc(-n2ncc3c(NCc4cccnc4)ncnc32)cc1	1.17	0.45
CC(=O)N1CN(Cc2ccccn2)Cc2c1sc1c2CCCC1	0.85	0.03
Cc1ccc(NC(=O)CCC(=O)c2cccs2)cc1F	0.73	0.13
CCc1ccc(OCC(=O)c2c(O)c3ccccc3oc2=O)cc1	0.01	-2.34
O=C1/C(=C/c2ccco2)SC(=S)N1C1CCS(=O)(=O)C1 (configuration not stated)	0.01	-1.74
CCn1c(CNC(=O)Cc2ccc(OC)cc2)n[nH]c1=S	0.02	-0.09
O=[N+]([O-])c1ccc(N2CCN(c3ccc(F)cc3)CC2)nc1	0.69	-0.27
Cc1n[nH]c(=S)n1/N=C/c1cccc(OCc2ccccc2)c1	0.43	-0.08
COC(=O)c1ccc(-c2nc(CN3CCCN(C(=O)c4ccco4)CC3)c(C)o2)cc1	0.66	-0.68
Cc1nnc(Sc2cc(C(=O)NC3CC3)c3ccccc3n2)s1	0.06	0.14
COc1ccc(-n2c(C)cc(/C=C3/SC(=O)N(CC(=O)N4CCOCC4)C3=O)c2C)cc1	0.82	-1.12
CC(C)(C)C(=O)NCCc1nc(-c2ccccc2)no1	0.03	-0.83
COc1ccc(C(=O)N(C)C(C)c2ccon2)cc1OC1CCN(C(C)C)CC1 (configuration not stated)	1.35	-0.65
C/C(=N\NC(=O)c1nnn(-c2nonc2N)c1-c1ccc(Cl)c(Cl)c1)c1ccncc1	0.77	2.21

(listing goes on)
SMILES	KCNQ2 enhance	KCNQ2 enhance baseline
O=C(NNC(=S)NC(=O)c1cccnc1)c1ccccc1	0.03	-0.45
CC(C)Nc1cc(C(F)(F)F)nc(-c2ccccn2)n1	0.03	1.62
CCOC(=O)C1(C)/C(=N/Nc2ccccc2)C(=O)C(=O)N1c1ccccc1 (configuration not stated)	1.27	-0.68
CC(=O)Nc1ccc(-c2csc(Nc3cc(C)ccn3)n2)cc1	0.03	-1.63
O=C(CCC1CCCC1)NNC(=O)c1cccc(Cl)c1	6.09*	-0.38*
CCCCn1c(SCC(=O)Nc2ccc(OC)cc2)nc2ccc(N3CCOCC3)cc2c1=O	0.39	-1.57
CCOCCCNC(=O)C1CC(=O)N(CCc2ccc(C)cc2)C1 (configuration not stated)	0.67	-0.01
COc1ccccc1CN1[C@@H](CC(=O)O)c2ccccc2S1(=O)=O	0.42	-0.21
CCOc1ccc2c(C)c(C(=O)O)oc2c1OCC	0.56	0.71
Cc1ccc(CNC(=O)Nc2ccccc2)cc1	3.71	-2.77
Cc1ccc(-c2nnc(Nc3ccc4c(c3)OCO4)c3ccccc23)cc1S(=O)(=O)NCCO	0.88	-1.68
CC(C)(C)C(=O)Nc1ccccc1N1CCN(C(=O)c2ccc(Cl)cc2)CC1	0.32	-1.3
CC1CC(C)CN(CCCNC(=O)CN2C(=O)CSc3ccc(S(=O)(=O)N4CCCCC4)cc32)C1 (configuration not stated)	0.81	0.43
CCOC(=O)c1sc(NC(=O)Nc2ccc(Cl)cc2)cc1C	0.31	0.5
COc1cc(F)ccc1CN1CCC(C(=O)Nc2ccc(Oc3ccccc3)nc2)CC1	0.48	-0.81
CN(CC(=O)Nc1cccc(F)c1)C(=O)Cn1cnc2c1c(=O)n(C)c(=O)n2C	2.19	0.11
Cc1cc2nc(-c3ccc(SCC(=O)N4CCc5ccccc54)nc3)[nH]c2cc1C	0.18	0.81
COc1ccc(-c2cc(=O)c3cc(OC)ccc3[nH]2)cc1	0.25	0.37
CCOC(=O)CNC(=O)C(CC(C)C)NC(=O)C1CCCCC1 (configuration not stated)	2.05	0.03
CC(C)[C@H](Nc1nc(-c2ccccc2)nc2c1oc1ccccc12)C(=O)O	0.96	2.23
CCc1ccc(S(=O)(=O)NCc2csc(-c3cccnc3)n2)s1	0.19	-0.68
CC1(C)CC(=O)C(C=NCCN2CCN(C(=O)c3ccc(F)cc3)CC2)=C(O)C1	0.29	0.09
O=C(NCCNC(=O)c1ccccc1Br)c1ccccc1Br	0.25	0.37
COc1ccc(-c2nnc(SC3CCOC3=O)n2C2CCCCC2)cc1OC (configuration not stated)	0.18	0.75
O=C(CNC(=O)c1ccccc1C(F)(F)F)N/N=C/c1cccs1	0.2	2.65

More records follow:
SMILES	KCNQ2 enhance	KCNQ2 enhance baseline
Fc1ccc2nc(Nc3nc4c(s3)CCCC4)sc2c1	0.67	-0.03
CCn1c(-c2ccccc2O)n[nH]c1=S	0.19	0.29
COc1ccc(S(=O)(=O)NC(CC(=O)NCCc2ccc(OC)c(OC)c2)c2ccco2)cc1 (configuration not stated)	1.87	-0.8
CCOC(=O)c1ccc(NC(=O)CSc2nc(SC)ns2)cc1	0.09	-1.26
COc1ccc(OCCCC(=O)N(C)CC(=O)Nc2c(C)cccc2C)cc1	0.6	-0.58
O=C(NCC1CCCO1)c1ccc(NS(=O)(=O)c2cccs2)cc1 (configuration not stated)	1.08	0.81
CC(C)CNC1CS(=O)(=O)CC1O (configuration not stated)	1.8	-2.5
CCOc1ccc(CCNC(=O)c2nnn(CC(=O)Nc3c(C)cc(C)cc3C)c2N)cc1OCC	0.85	-0.91
CCOc1ccccc1CNC(=O)CCNC(=O)Cn1ccc2ccccc2c1=O	0.72	-1.46
Cc1nc(C2COc3ccccc3O2)sc1C(=O)O (configuration not stated)	0.06	-0.61
CCCCn1c(NCCC)nc2c1c(=O)[nH]c(=O)n2C	0.01	-1.78
CCCCNC(=O)c1onc(CSc2ccccc2)c1C(=O)NCCCC	0.06	0.4
CSc1ccccc1NC(=O)Cc1ccc(Br)cc1	4.07	0.2
Cc1ccnc(NC(=S)NC(=O)c2ccco2)c1	0.3	0.22
CC(=O)N1c2ccc(S(=O)(=O)NCC3CCC(C(=O)N4CCCC(C)C4)CC3)cc2CC1C (configuration not stated)	0.01	0.14
COc1ccccc1CNC(=O)CSc1nc2ccccc2c(=O)n1CCCN1CCOCC1	1.47	-0.24
Cc1cc(NS(=O)(=O)c2ccc(NC(=O)COc3ccc(Cl)cc3)cc2)no1	0.29	-0.39
O=C(NC(=S)NCc1ccccc1)c1ccc2c(c1)OCO2	1.4	0.07
CC1CCN(C(=O)Cn2ncc3c([nH]c4ccccc43)c2=O)CC1	0.16	-1.14
COC(C)(C)[C@]12CC(O)(C(C)C)ON1[C@H]1CCCCC1N2O (some centres not stated)	0.4	0.5
Cc1ccc(CN2C(=O)c3ccccc3C2C(=O)NCC2CCCO2)cc1 (configuration not stated)	0.09	2.62
O=C1CC(c2ccccc2)n2ncnc2N1 (configuration not stated)	0.01	-0.78
COc1ccc(-c2cc(=O)oc3cc(O)ccc23)cc1	1.71	-1.36
CCC(CC)c1nnc(NC(=O)c2ccc(N3CCCC3=O)cc2)s1	1.37	-0.83
Cc1ccccc1Nc1c(-c2cccnc2)nc2ccc(Br)cn12	0.7	-1.95

Reprinted from the part before: seven compounds; new compounds follow.
SMILES	KCNQ2 enhance	KCNQ2 enhance baseline
CC1CCN(C(=O)Cn2ncc3c([nH]c4ccccc43)c2=O)CC1	0.16	-1.14
COC(C)(C)[C@]12CC(O)(C(C)C)ON1[C@H]1CCCCC1N2O (some centres not stated)	0.4	0.5
Cc1ccc(CN2C(=O)c3ccccc3C2C(=O)NCC2CCCO2)cc1 (configuration not stated)	0.09	2.62
O=C1CC(c2ccccc2)n2ncnc2N1 (configuration not stated)	0.01	-0.78
COc1ccc(-c2cc(=O)oc3cc(O)ccc23)cc1	1.71	-1.36
CCC(CC)c1nnc(NC(=O)c2ccc(N3CCCC3=O)cc2)s1	1.37	-0.83
Cc1ccccc1Nc1c(-c2cccnc2)nc2ccc(Br)cn12	0.7	-1.95
CCOc1ccc(C(=O)Nc2cccc(NC(=O)c3cccs3)c2)cc1[N+](=O)[O-]	3	-0.84
NS(=O)(=O)c1ccc(NC(=O)COc2ncnc3c2cnn3-c2ccccc2)cc1	0.84	1.04
c1ccc(CCc2nn3c(-c4ccncc4)nnc3s2)cc1	0.09	0.82
CCOC(=O)OC(C)OC1=C(C(=O)Nc2ccccn2)N(C)S(=O)(=O)c2ccccc21 (configuration not stated)	0.75	-0.88
COc1cc(C2NC(=O)NC(C)=C2C(=O)NCc2ccccc2)c(Cl)cc1O (configuration not stated)	0.03	2.21
O=C(CN1CCN(c2ccc(O)cc2)CC1)Nc1cc(S(=O)(=O)N2CCCCC2)ccc1Cl	0.52	-0.08
CCOc1ccccc1NC(=O)CNS(=O)(=O)c1ccc2nc(C)sc2c1	0.5	-1.05
CCOC(=O)c1[nH]c2c(c1C)C(=O)CC(c1ccco1)C2 (configuration not stated)	0.14	0.17
N#Cc1ccccc1Sc1ccccc1N	0.12	-1.86
CC1=C(C)/C(=N\OS(=O)(=O)c2ccccc2)C=CC1=O	6.91*	-0.51*
Cc1ccc(NC(=O)CCN2C(=O)c3ccccc3S2(=O)=O)cc1F	2.19	0.08
O=C(O)c1cccc(COc2ccccc2Cl)c1	1.61	-0.95
CCOC(=O)c1ccccc1NC(=O)c1cccnc1	0.57	-1.48
O=C(c1ccc(Br)o1)N(Cc1ccccc1)c1ccccn1	0.3	0.92
CN(C)c1cccc(C(=O)OCC(=O)Nc2ccccc2-c2ccccc2)c1	0.47	-1.61
CC1(C)CC(N(Cc2ccc(F)cc2)C(=O)c2ccc(F)cc2)CCO1 (configuration not stated)	0.27	0.12
Cn1c(=O)c(C(=O)CN2CCOCC2)c(N)n(Cc2ccccc2)c1=O	0.33	-1.03
O=C(COC(=O)c1cc(=O)[nH]c2ccccc12)Nc1nc(-c2cccc(Br)c2)cs1	1.67	-2.61
COCCn1c(=S)[nH]c2cc(C(=O)NCCc3ccc(OC)c(OC)c3)ccc2c1=O	1.68	-2.67

Some of these compounds in order of number of heavy atoms, high to low.
SMILES	KCNQ2 enhance	KCNQ2 enhance baseline
CCCCn1c(SCC(=O)Nc2ccc(OC)cc2)nc2ccc(N3CCOCC3)cc2c1=O	0.39	-1.57
CCOc1ccccc1CNC(=O)CCNC(=O)Cn1ccc2ccccc2c1=O	0.72	-1.46
CCCCn1c(NCCC)nc2c1c(=O)[nH]c(=O)n2C	0.01	-1.78
Cn1c(Cc2ccccc2)[n+](C)c2ccccc21	0.43	0.47
